Screening results as filed in PubChem.
Bfl-1 A1 inh – inhibitors of the anti-apoptotic protein A1, read as caspase activation | MEF A1-2A-BIM cells, Caspase-Glo 3/7 luminescence, 3 h; percent of clofoctol response, vehicle zero | caspase activation, % (test concentration not listed) | 330,000 compounds, 0.066% hits;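 active means over half of replicate activation scores above 10%, or exactly half above 10 with the replicate mean above 10; inconclusive means replicate mean below 10 yet half the replicates above 10; inactive means over half of replicates below 10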;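 further: wells of about 30 µL received 50 nL stock; many hits fall short of the cut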
HNF4A DNA FP – change in binding of human HNF4 alpha to DNA | P41235 | HNF4a-FITC DNA binding, fluorescence polarization, 1 h | activity change, % at 10 µM | 360,000 compounds, 0.3% hits; in the data active means activity change above about 30%, passing the limit was not always enough;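 further: controls were the assay level and a saturating level of protein; the project sought stronger binding though the title names inhibitors; some compounds called inactive have numbers as strong as hits; positive values seem to mean higher polarization but the record does not say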
Target sequence (P41235 whole entry, looked up): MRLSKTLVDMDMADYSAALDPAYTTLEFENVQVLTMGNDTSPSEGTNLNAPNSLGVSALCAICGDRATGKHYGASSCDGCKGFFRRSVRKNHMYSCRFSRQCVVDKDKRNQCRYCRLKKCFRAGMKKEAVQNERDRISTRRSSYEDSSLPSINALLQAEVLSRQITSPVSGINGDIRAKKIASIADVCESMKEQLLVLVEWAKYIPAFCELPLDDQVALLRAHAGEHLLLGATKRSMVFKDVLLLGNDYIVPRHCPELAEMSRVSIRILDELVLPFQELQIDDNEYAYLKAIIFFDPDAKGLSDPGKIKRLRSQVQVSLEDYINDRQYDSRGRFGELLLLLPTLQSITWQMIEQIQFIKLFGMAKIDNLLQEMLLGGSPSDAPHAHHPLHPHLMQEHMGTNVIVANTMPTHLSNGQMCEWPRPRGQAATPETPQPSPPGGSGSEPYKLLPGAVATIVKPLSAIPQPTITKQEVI
UCH37 inh – human UCH37 deubiquitinating enzyme inhibition; purified proteasome/UCH37, Ub-AMC cleavage fluorescence; inhibition, % (test concentration not listed); 330,000 compounds, 0.33% hits; AID 588478;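 active means mean of two replicates above 20%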;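 further: 0% = compound-free wells with enzyme and 100% = wells lacking proteasome; stock transfer was 100 nL into about 20 µL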
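assay system = human UCH37 enzyme supplied as purified proteasome complex | amount = proteasome at 0.15 nM in the dispensed enzyme solution | schedule = 30 min compound-proteasome preincubation then 25 min substrate reaction, room temperature | measured by = fluorescence, ex 355 nm, em 460 nm | benchmarks = no-proteasome wells (full inhibition) and compound-free wells (no inhibition)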
E coli growth – inhibitors of Escherichia coli growth; OD600, 23 h; active compounds read low; OD600 absorbance (test concentration not listed); 330,000 compounds, 0.21% hits;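 active means OD600 absorbance below the run mean of sample wells minus 3.6 SD, in any replicate, cut at about 0.56 in these data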;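 further: stock transfer was 300 nL into about 60 µL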
Vif A3G – HIV-1 Vif–A3G interaction blockers – biochemical, TR-FRET, GST-Vif 1-94, biotin-A3G peptide, dose response retest, primary screen (AID 1117319); TR-FRET GST-Vif / biotin-A3G peptide binding; higher % means a stronger effect; test concentration not given here; strong numbers were not always called active; one-dose inhibition, %; IC50 in µM for titrated hits; 260,000 compounds, 0.57% hits;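 active means above the screen mean plus three standard deviations and confirmed in dose response; inconclusive means results disagree or hit not tested in dose response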;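 further: Vif residues 1-94 fused to GST binding biotinylated APOBEC3G peptide 110-148; 0% = full assay without inhibitor and 100% = GST in place of GST-Vif; retest series ran down from 100 µM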
Beta2AR agonist – agonists of human beta-2 adrenergic receptor inducing internalization; P07550; Am2.2-beta2AR cells, FAP receptor internalization, flow cytometry; reference of the scale not given here; response, % (test concentration not listed); 340,000 compounds, 0.43% hits;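 active means response above a set limit, near 3 SD of response in nonfluorescent compounds, cut at about 42% in these data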;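 further: stock transfer was 100 nL into about 11 µL; a reference agonist was the positive control; negative values mostly stem from fluorescent compounds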
Target sequence (P07550 whole entry, looked up): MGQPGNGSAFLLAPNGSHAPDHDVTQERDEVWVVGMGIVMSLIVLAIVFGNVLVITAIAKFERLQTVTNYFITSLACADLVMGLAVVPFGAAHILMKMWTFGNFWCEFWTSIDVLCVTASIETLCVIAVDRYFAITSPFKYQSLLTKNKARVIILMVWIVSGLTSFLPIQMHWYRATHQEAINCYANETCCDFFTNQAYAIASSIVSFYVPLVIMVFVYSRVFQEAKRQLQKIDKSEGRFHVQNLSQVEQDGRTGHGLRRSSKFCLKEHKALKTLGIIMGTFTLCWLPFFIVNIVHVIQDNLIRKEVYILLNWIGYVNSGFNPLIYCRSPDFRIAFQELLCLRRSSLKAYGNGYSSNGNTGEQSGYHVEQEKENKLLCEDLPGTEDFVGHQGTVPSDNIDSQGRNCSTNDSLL
LANA-H2A inh – blocks KSHV LANA binding to histone H2A/H2B; Q9QR71; inhibition, % (test concentration not listed); cell-free LANA-H2A/H2B peptide, fluorescence polarization; 320,000 compounds, 0.6% hits; in the data active means inhibition mostly above about 10%, no sharp cut-off; inactive means mostly below about 6.7%;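 further: stock transfer was 7.5 nL into about 10 µL; 0% = median of vehicle wells and 100% = median of positive control wells; one replicate is shown; the record names a cut of 25% in any replicate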
Numbers without * were called inactive; ? = inconclusive; . = no result given; & = joins results of further samples.

SMILES	Bfl-1 A1 inh	HNF4A DNA FP	UCH37 inh	E coli growth	Vif A3G	Beta2AR agonist	LANA-H2A inh
CCN(c1ccccc1)S(=O)(=O)c1ccc(OC)c(NS(=O)(=O)c2cccs2)c1	-0.1	0.9	2.0	0.7	?	-10	1.0
COc1ccccc1NC1=C(N2CCCCC2)C(=O)c2ccccc2C1=O	-0.5	5.8	52*	0.71	10%	0	1.8
COC(CNC(=O)CN1CCN(Cc2ccc(F)cc2Cl)C1=O)OC	1.7	0.3	3.2	0.65	1%	-6	-0.9
CN1C2CCC1CC(NC(=O)CSCc1ccc(Cl)cc1Cl)C2 (stereo not drawn)	0.6	3.5	6.3	0.68	-8%	-5	-1.3
COc1ccc(NS(=O)(=O)c2ccc3c(c2)n(C)c(=O)n3C)cc1	0.0	-2.2	3.5	0.66	3%	-8	-8.4
COc1ccc(N(CC(=O)NCc2ccc3c(c2)OCO3)C(=O)c2csnn2)cc1	-0.1	3.8	0.4	0.63	2%	-6	3.2
O=C(O)c1cc(Cl)c2ccccc2c1O	-0.7	2.6	-105	0.69	5%	2	-10
O=C(CCS(=O)(=O)c1ccccc1Cl)NCc1ccc(F)cc1	0.1	4.2	4.2	0.65	-5%	-1	-1.9
COc1ccc(OC)c(/C=N/NC(=O)C(O)c2ccccc2)c1 (stereo not drawn)	0.9	-1.9	.	.	0%	2	-2.7
COc1cccc(NC(=O)CN(C)C(=O)CCNC(=O)c2ccc(Br)cc2)c1	-0.9	0.4	3.6	0.68	4%	-2	2.0
O=C(NCCc1ccc(Cl)cc1)C1CCCN(S(=O)(=O)N2CCCCCC2)C1 (stereo not drawn)	4.4	-1.3	-0.4	0.67	.	-5	-5.1
COc1ccc(N(CC(=O)NC2CC3CCC2C3)S(=O)(=O)c2ccc(C)cc2)cc1 (stereo not drawn)	0.3	-1.1	3.3	0.64	.	1	0.9
Brc1ccccc1OCCCN1CCCCCC1	0.1	4.1	1.1	0.63	-6%	-2	-3.8
CCOc1ccc(NC(=O)CSc2nnc(C3CC3)n2N)cc1	0.2	4.0	0.9	0.71	1%	-3	1.0
COC(=O)c1cccc(C(=O)N2CCCC(CNC(=O)c3ccccc3Cl)C2)c1 (stereo not drawn)	0.6	1.5	-0.6	0.69	?	1	-2.6
N#Cc1ccc(OCC(=O)OCC(=O)NCCC2=CCCCC2)cc1	0.6	1.6	1.5	0.7	25%	-3	4.0
Cc1cc(CN2CCCC(CNC(=O)c3ccc(F)cc3)C2)cc(C)c1O (stereo not drawn)	1.5	2.2	4.4	0.66	0%	8	1.0
CC1Sc2ccc(S(=O)(=O)CCC(=O)N3CCCCC3)cc2NC1=O (stereo not drawn)	-0.5	5.0	4.3	0.66	.	1	-4.9
O=C(COc1ccc(-n2cnnn2)cc1)Nc1ccc(Br)cc1F	0.5	1.4	-0.9	0.71	.	7	-0.1
O=C(Nc1ccc(F)c(Cl)c1)C1CCCN(c2cnccn2)C1 (stereo not drawn)	-0.7	1.0	.	.	0%	7	-0.5
O=C(O)C1CCN(c2ccc(Cl)nn2)CC1	-0.2	0.8	1.9	0.66	-5%	-2	-4.9
CCN1CCN(C(=O)/C(=C/c2cccs2)NC(=O)c2ccc(C)c(C)c2)CC1	-0.3	3.3	4.6	0.68	.	3	0.2
C=CCOC(=O)C1=C(C)NC(C)=C(C(=O)OCC=C)C1c1ccco1	0.8	5.4	-11	0.63	?	-1	0.9
C=CCOc1cccc(C2C(C(=O)c3cccs3)=C(O)C(=O)N2Cc2cccnc2)c1 (stereo not drawn)	-0.6	1.0	13	0.68	-7%	0	-8.9
Cc1ccccc1-n1c(C)c(C#N)c(=O)c(-[n+]2ccccc2)c1[S-]	-0.7	4.5	4.4	0.65	-7%	-4	-5.3
CN(C)C=Nc1ncc2c([nH]c3ccccc32)c1C#N	-0.6	1.9	-9.6	0.79	-7%	-1	0.9
Cc1c(C(=O)Nc2ccccc2)csc1-c1ccccc1	-8.2	-0.1	5.6	0.73	7%	-4	1.6
CCN(CC)CCC(c1ccc2c(c1)OCO2)c1c(OC)cc(OC)c2ccc(=O)oc12 (stereo not drawn)	1.5	2.4	-2.0	0.69	-3%	-14	-1.6
CCN1C=C(Cc2cccs2)C2=C(C1)C(c1cccs1)C(C#N)=C(N)O2 (stereo not drawn)	0.1	4.8	-1.2	0.78	27%	22	-1.7
O=C(Nc1ccccc1)C1=C(O)CC(c2ccco2)CC1=Nc1ccccc1 (stereo not drawn)	0.8	-1.8	3.1	0.72	15µM*	-9	-3.9
Cc1ccc(-c2n[nH]c(=S)n2/N=C/c2cccn2C)cc1	0.1	1.1	.	.	1%	0	-10
CC(NC(=O)C1CCN(S(=O)(=O)N2CCC3(CC2)OCCO3)CC1)c1ccccc1 (stereo not drawn)	-0.4	-0.4	5.6	0.71	.	0	7.7
CC(=O)Nc1ccc(S(=O)(=O)N2CCC(C(=O)NCCC(=O)Nc3nccs3)CC2)cc1	1.3	1.4	1.5	0.67	.	11	3.2
COc1ccc(-n2c(=O)[nH]c3c(C(N)=O)nc(C4CCCCC4)nc32)cc1	-0.8	-0.6	3.5	0.73	6%	3	1.7
O=C(NCc1ccc2c(c1)OCO2)c1ccc(S(=O)(=O)N2CCOCC2)cc1	0.5	-1.9	1.7	0.66	-6%	4	3.8
S=C(NC1CCCCC1)N1CCc2[nH]c3ccccc3c2C1	-0.6	3.8	3.4	0.65	.	0	1.9
O=C(NN=C1CCCC1)c1cccc(O)c1	0.1	-3.4	1.3	0.68	.	6	1.7
CCS(=O)(=O)N1CCN(Cc2nc3ccccc3c(=O)[nH]2)CC1	0.3	1.2	0.1	0.68	0%	2	-4.2
COc1ccc(-n2nc(C(=O)NCC(=O)NCCc3ccc(OC)c(OC)c3)c3ccccc3c2=O)cc1	-0.2	2.7	0.8	0.72	.	7	5.4
COc1cc(OC)cc(-c2cc3nc(C)c(CCC(=O)O)c(C)n3n2)c1	-8.7	2.9	-23	0.72	3%	8	2.1
Cc1nn(-c2ccccc2)c(Cl)c1/C=N/NC(=O)CNc1n[nH]c(=O)[nH]c1=O	0.4	.	.	.	-7%	.	0.7
C#Cc1ccc([C@@H]2C=C(C(=O)NC3CC3)O[C@H](OCc3ccc(CO)cc3)C2)cc1	0.8	3.7	-20	.	.	-1	-6.9
CNC(=O)CN(Cc1ccccc1)S(=O)(=O)c1ccc(Cl)cc1	2.1	4.2	2.8	0.69	.	6	2.7
O=C(COC(=O)C1CCN(S(=O)(=O)c2cccs2)CC1)Nc1ccccc1Br	0.0	2.9	3.4	0.67	7%	2	-2.0
COc1ccc(CC(=O)O/N=C(\N)Cc2cccc3ccccc23)cc1	-0.4	17	1.8	.	3%	-46	5.3
Cc1ccc(C(=O)NNC(=O)c2ccc(C)cc2)cc1	0.2	-0.9	-1.5	0.68	0%	6	2.6
Nc1nc2ccccc2n1/N=C/c1cccnc1	0.1	-0.7	.	.	-1%	-4	3.2
CCn1cc(CN2CCC(n3nccc3NC(=O)CCCc3ccccc3)CC2)c(C)n1	-0.3	1.8	2.0	0.66	2%	-6	-0.4
O=C(O)c1ccccc1C(=O)Nc1ccc(S(=O)(=O)N2CCCC2)cc1	0.8	2.7	0.4	0.65	.	24	3.3
NC(=O)c1ccsc1NC(=O)c1nc(-c2ccccc2)n(-c2ccccc2)n1	0.3	10	-12	0.71	-20%	-10	1.0
COc1ccccc1CN(C)C(=O)c1ccc(S(=O)(=O)NCc2ccco2)cc1	1.3	0.8	2.7	0.71	0%	-7	-0.3
COc1ccc(-c2sc3cc(OC)c(OC)cc3c2C#CC2(O)CCCCC2)cc1	-0.3	5.3	.	.	.	6	2.9
CCCSCCCNC(=O)CC1Oc2ccccc2NC1=O (stereo not drawn)	0.1	-0.6	9.3	0.73	3%	5	0.7
CCc1noc(C)c1C(=O)N1CCCC(C(=O)c2cc(F)ccc2F)C1 (stereo not drawn)	-0.8	1.5	-0.9	0.69	2%	-3	1.9
COC(=O)c1ccc(C(=O)OC)c(NC(=O)/C=C/C(=O)O)c1	-0.6	-0.1	-64	0.7	-2%	-6	-2.5
COc1ccc(NC(=O)C(CC(=O)O)Cc2ccc(Cl)cc2)cc1 (stereo not drawn)	0.0	-3.4	4.4	0.67	.	0	-3.0
O=C(NNc1ncnc2c1cnn2-c1ccccc1)c1cccs1	1.1	-1.5	-1.2	0.71	-5%	-5	-1.4
COc1cc(/C=C/C(=O)O)cc(S(=O)(=O)Nc2ccccc2C(=O)NCCc2ccccc2)c1OC	0.4	1.4	-1.8	0.69	-1%	11	-4.9
O=C(CN(CC1CCCO1)C(=O)CCC(=O)Nc1ccccn1)NCC1CCCO1 (stereo not drawn)	-0.5	-1.3	-3.9	0.77	-7%&-6%	2	-1.5
COc1ccc(-n2c(=O)c(CCC(=O)N3CCC(C)CC3)nc3ccccc32)cc1	-0.7	3.8	4.4	0.65	3%	2	-2.6
Next section:
SMILES	Bfl-1 A1 inh	HNF4A DNA FP	UCH37 inh	E coli growth	Vif A3G	Beta2AR agonist	LANA-H2A inh
Cn1c([N+](=O)[O-])cnc1N1CCN(c2nncs2)C1=O	0.7	1.3	7.4	0.67	-1%	-8	8.6
COc1ccc(N=Nc2nc3ccc(Br)cc3n2C)cc1	-2.7	-60	9.1	0.71	3%	-19	88*
CC(=O)Cn1nnc2sc3c(c2c1=O)CCC(C(C)(C)C)C3 (stereo not drawn)	0.4	-1.5	4.4	0.65	10%	-18	2.5
CCOC(=O)c1c(C)c(C(=O)NC2CCCCC2)c(C)n1CC	.	-1.8	2.0	0.73	?	-19	.
CC(NC(=O)c1cc2ccccc2oc1=O)c1ccccc1 (stereo not drawn)	0.5	3.9	-13	0.67	-6%	-3	0.1
Cc1nc2cc(C(=O)N3CCN(C)CC3)ccc2n1C	0.1	0.7	4.0	0.71	.	-5	-6.1
CCN(CC)CCN(C(=O)C1=COCCO1)c1nc2ccc(C)cc2s1	0.5	3.2	3.9	0.65	.	19	2.3
CCc1cccc(C)c1NC(=S)NCc1cccn1C	0.5	0.9	1.0	0.72	.	1	2.9
O=C(NCc1ccccc1)c1cc(S(=O)(=O)N2CCCCC2)ccc1N1CCOCC1	0.5	2.7	1.1	0.44*	5%	-1	0.0
Cc1cc(-c2ccccc2)n(-c2ccc(C(=O)NC(C)C)cc2)n1	-1.6	0.8	4.5	0.69	0%	-15	-2.0
CC(C)c1nnc(SCC(=O)NCCC2=CCCCC2)n1N	0.8	-0.1	-0.9	0.73	6%	-4	4.1
COc1ccccc1N1CCN(C(=O)CSc2nnnn2C2CC2)CC1	.	3.2	-0.5	0.67	-7%	2	.
N#Cc1ccc(C(=O)OCC(=O)Nc2cccc(S(=O)(=O)N3CCCCC3)c2)cc1	-0.2	-2.8	3.4	0.68	-14%	-1	-3.9
O=C(NCCCN1CCc2ccccc2C1)C1CCN(S(=O)(=O)N2CCC3(CC2)OCCO3)CC1	0.0	0.5	1.8	0.67	.	-3	5.1

An excerpt of these results, bar-delimited.
Compound | Bfl-1 A1 inh | HNF4A DNA FP | UCH37 inh | E coli growth | Vif A3G | Beta2AR agonist | LANA-H2A inh
CCOC(=O)c1c(C)c(C(=O)NC2CCCCC2)c(C)n1CC | . | -1.8 | 2.0 | 0.73 | ? | -19 | .
Cc1c(C(=O)Nc2ccccc2)csc1-c1ccccc1 | -8.2 | -0.1 | 5.6 | 0.73 | 7% | -4 | 1.6
CCN1C=C(Cc2cccs2)C2=C(C1)C(c1cccs1)C(C#N)=C(N)O2 (stereo not drawn) | 0.1 | 4.8 | -1.2 | 0.78 | 27% | 22 | -1.7
Cn1c([N+](=O)[O-])cnc1N1CCN(c2nncs2)C1=O | 0.7 | 1.3 | 7.4 | 0.67 | -1% | -8 | 8.6
